Compound activity from PubChem.
rRNA inh HTS: inhibits bacterial ribosomal RNA function over humanized ribosomes. AID 720706. E. coli WT GFP vs humanized-ribosome RFP mutants, fluorescence, 24 h; active compounds read low; DMSO median 0, no signal -100. hit rate 1.6% among 350,000. GFP signal change (wild-type ribosome), % (no concentration beside the values);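 active = significant combined selectivity score with lowered wild-type GFP, culture density cut under 30%, mutant RFP and density less affected; inactive = any of these conditions unmet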; note: one replicate is shown; some compounds called inactive have numbers as strong as hits
MLL AF4-AF9 inh: blocks AF4 peptide binding to human AF9; P42568; AlphaScreen, biotin-AF4 peptide binding to FLAG-AF9; inhibition, % at 10 µM; hit rate 0.47% among 350,000;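 active = every replicate reaching a set inhibition limit, whatever the replicate mean, cut at about 25% in these data; inconclusive = mean inhibition reaches that limit but some replicates miss it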;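 note: 0% = plate neutral control median and 100% = total signal loss; the record names both 10 and 1 µM as test concentration; the first replicate is given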
Target sequence (P42568 whole entry, looked up): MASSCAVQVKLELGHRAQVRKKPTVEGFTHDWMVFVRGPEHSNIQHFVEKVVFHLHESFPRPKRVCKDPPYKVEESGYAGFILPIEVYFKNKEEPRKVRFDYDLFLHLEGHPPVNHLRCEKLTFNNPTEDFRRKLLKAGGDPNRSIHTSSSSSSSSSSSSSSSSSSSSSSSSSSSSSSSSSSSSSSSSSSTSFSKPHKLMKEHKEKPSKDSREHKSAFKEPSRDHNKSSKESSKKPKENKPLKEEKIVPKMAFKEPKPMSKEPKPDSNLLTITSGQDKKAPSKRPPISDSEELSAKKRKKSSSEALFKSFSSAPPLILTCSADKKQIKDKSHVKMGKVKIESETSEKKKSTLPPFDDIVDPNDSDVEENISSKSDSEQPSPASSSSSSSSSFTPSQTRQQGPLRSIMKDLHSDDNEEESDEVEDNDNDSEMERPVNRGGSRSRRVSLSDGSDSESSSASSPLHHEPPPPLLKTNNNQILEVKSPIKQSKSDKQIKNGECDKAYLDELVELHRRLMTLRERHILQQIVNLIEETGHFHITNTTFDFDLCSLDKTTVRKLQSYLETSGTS
T cruzi inh: blocks replication of Trypanosoma cruzi. T. cruzi beta-gal in NIH3T3, luminescence, 90 h. inhibition, % (concentration not given with the values). hit rate 1.4% among 300,000. AID 1885;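 active = mean inhibition across valid replicates above about 55%, limit read from the data; inconclusive = mean below that limit but half or more replicates reach it; inactive = mean below it, under half of replicates reach it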;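 note: signal also drops with host cell toxicity which is not excluded here; 0% = plate median of DMSO wells and 100% = zero luminescence signal; higher percent means less beta-gal luminescence so fewer parasites; stock transfer was 50 nL into about 50 µL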
E coli growth: E. coli growth inhibition; Escherichia coli growth, OD600, 23 h; active compounds read low; hit rate 0.21% among 330,000; AID 1053175; OD600 absorbance (test concentration not listed);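 active = OD600 absorbance below the run mean of sample wells minus 3.6 SD, in any replicate, cut at about 0.56 in these data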;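 note: stock transfer was 300 nL into about 60 µL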
UCH37 DUB inh: inhibitors of human deubiquitinating enzyme UCH37; Q9Y5K5; purified proteasome/UCH37, Ub-AMC cleavage fluorescence; inhibition, % (test concentration not listed); hit rate 0.33% among 330,000;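 active = mean of two replicates above 20%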;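 note: 0% = compound-free wells with enzyme and 100% = wells lacking proteasome; stock transfer was 100 nL into about 20 µL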
Target sequence (Q9Y5K5 whole entry, looked up): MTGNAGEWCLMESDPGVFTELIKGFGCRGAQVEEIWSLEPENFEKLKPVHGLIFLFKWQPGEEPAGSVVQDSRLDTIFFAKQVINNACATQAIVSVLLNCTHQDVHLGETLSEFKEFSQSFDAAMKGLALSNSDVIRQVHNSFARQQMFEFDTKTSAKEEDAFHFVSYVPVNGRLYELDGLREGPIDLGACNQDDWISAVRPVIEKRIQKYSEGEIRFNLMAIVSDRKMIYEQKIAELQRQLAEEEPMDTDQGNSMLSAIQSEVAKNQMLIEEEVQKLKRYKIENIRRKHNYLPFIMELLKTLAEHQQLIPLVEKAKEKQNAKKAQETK
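Material: human UCH37 enzyme supplied as purified proteasome complex / Amount: 0.15 nM proteasome as dispensed / Buffer or medium: pH 7.4 Tris-HCl (50 mM) with ovalbumin, ATP-MgCl2, DTT / Times: preincubation 30 min, reaction 25 min, room temperature / Technique: AMC fluorescence from Ub-AMC cleavage, excitation 355 nm, emission 460 nm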
A1 inh: inhibitors of the anti-apoptotic protein A1, read as caspase activation | MEF A1-2A-BIM cells, Caspase-Glo 3/7 luminescence, 3 h; percent of clofoctol response, vehicle zero | caspase activation, % (test concentration not listed) | hit rate 0.066% among 330,000 | AID 2462;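 active = over half of replicate activation scores above 10%, or exactly half above 10 with the replicate mean above 10; inconclusive = replicate mean below 10 yet half the replicates above 10; inactive = over half of replicates below 10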;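 note: wells of about 30 µL received 50 nL stock; many hits fall short of the cut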
FGF22 binding: FGF22 (human) thermal shift binding. recombinant FGF22 thermal shift, SYPRO orange fluorescence; percent of sucrose octasulfate shift, DMSO zero. calls only at 9.99 µM. hit rate 1.5% among 340,000;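 active = melting point raised past a set limit in the mean and every replicate; inconclusive = no clear call; three in four hits are not shown here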
Target sequence (Q9HCT0 whole entry, looked up): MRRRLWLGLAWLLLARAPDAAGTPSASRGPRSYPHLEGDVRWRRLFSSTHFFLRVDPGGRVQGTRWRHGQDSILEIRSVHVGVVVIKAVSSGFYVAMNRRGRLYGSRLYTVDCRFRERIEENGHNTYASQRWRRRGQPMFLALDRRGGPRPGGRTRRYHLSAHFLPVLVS
Beta cell apopt: blocks beta cell apoptosis. INS-1E cytokine-induced death, ATP luminescence, 48 h; percent of positive-control rescue, neutral wells zero. protection from apoptosis, % (concentration not given with the values). hit rate 0.8% among 300,000. AID 435005;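 active = all replicates at 75% or more, or half of them and the mean; inconclusive = half reach 75% but not the mean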;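 note: 0% = cytokine-treated negative control wells and 100% = positive control rescue; higher means more ATP so stronger rescue from cytokine killing; wells of about 40 µL received 100 nL stock; the first replicate is given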
rRNA inh HTS OD600: further read-out of rRNA inh HTS, marked with its call; OD600 change, %; measured here: OD600 growth;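 optical density of the mix in the first replicate; 0 = DMSO median and -100 = no signal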
rRNA inh HTS RFP: also measured in rRNA inh HTS; calls as there; RFP signal change, %; measured here: RFP humanized mutant strains;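 first replicate; 0 = DMSO median and -100 = no signal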
Starred values were filed as active, the others as inactive; i = inactive; ? = inconclusive; · = no result given. A portion of the library; count on the stated rates, not on these rows.

SMILES	rRNA inh HTS	rRNA inh HTS OD600	rRNA inh HTS RFP	MLL AF4-AF9 inh	T cruzi inh	E coli growth	UCH37 DUB inh	A1 inh	FGF22 binding	Beta cell apopt
CCCCn1c(=O)c(C(=O)Nc2ccccc2F)c(O)c2ccccc21	0	6	-0.8	-0.2	-8	0.73	-40	-0.5	i	·
O=C(Nc1ccccc1OC(=O)N1CCOCC1)N1CCOCC1	·	·	·	·	7	0.7	0.1	0.1	·	1
CC(C)[C@]12CC(=O)[C@H](C)[C@H]1C2	5	5	-0.5	·	·	0.68	-0.5	-0.9	i	-2
O=C(CN1C(=O)CN=C(c2ccccc2Cl)c2cc(Cl)ccc21)NCc1ccco1	·	·	·	·	9	0.7	-2.4	-0.9	·	3
C[N+]12CN3CN(CN(C3)C1)C2	·	·	·	·	10	0.7	0.1	0.3	·	·
CCCCn1c(O)c(C(C)=NCc2ccc(F)cc2)c(=O)[nH]c1=O	·	·	·	·	-11	0.67	3.6	-0.3	·	-6
OCC12CO[C@@H]3c4ccccc4[C@H](OC1)N32 (stereo partly specified)	·	·	·	·	·	0.71	-2.3	0.6	·	-9
CCN1C[C@]2(C)CC[C@H](OC)[C@]34C2[C@H](OC(C)=O)[C@@]2(OCO[C@@]25C[C@H](OC)[C@H]2C[C@]3(O)C5[C@H]2OC)[C@@H]14	1	2	3.5	-0.4	-13	·	·	-0.3	i	-5
O=C1NC(=O)N(c2ccc3c(c2)OCO3)C(=O)/C1=C/c1ccc(N2CCCCC2)o1	·	·	·	·	-18	0.73	0.4	-0.7	·	1
CCC(=NCc1cccnc1)c1c(O)n(-c2ccc(Cl)cc2)c(=O)[nH]c1=O	5	-14	-0.8	0.0	1	0.67	5.5	-0.2	i	-7
CCN1CCN(Cc2ccccc2C)CC1	4	13	-6.7	·	5	0.65	-0.8	·	·	-8
COc1ccc2[nH]cc(CCN(C)C)c2c1	13	10	3.2	3.2	-8	0.71	0.7	1.5	i	-10
Cc1noc(C)c1CC(=O)N1CCCC(N2CCN(c3ccccc3F)CC2)C1 (stereo unspecified)	15	11	3.3	-2.0	-2	0.67	4.2	-0.2	i	-1
O=C1CC(=O)N(c2ccccc2)C(=O)N1c1ccccc1	10	6	3.4	-2.8	5	0.69	1.6	-0.3	i	-4
CC1CCCC(C)N1/N=C/c1c[nH]c2ccc(Br)cc12 (stereo unspecified)	-1	8	6.3	?	18	·	·	0.2	i	4
CC(C)OC(=O)C1C(=O)NC2(C)CC1c1ccccc1O2 (stereo unspecified)	·	·	·	·	-14	0.72	3.9	0.9	·	-1
COc1ccc(C(=O)C2CCCN(Cc3ccon3)C2)c(OC)c1 (stereo unspecified)	·	·	·	·	-17	0.73	0.5	0.9	·	0
COCCNC(=O)N1[C@H]2CC[C@@H]1C(C(=O)OC)=C(c1ccc(OC)c(OC)c1)C2	29	24	-6.7	2.7	·	·	-0.1	-0.3	i	-5
O=C(N/N=C/c1c(O)n(CCc2ccccc2)c(=O)[nH]c1=O)c1ccccc1	18	13	4.1	-0.1	-5	0.67	-140	-0.1	·	-1
COC(=O)C1=C(c2ccc(C(C)=O)cc2)C[C@@H]2CC[C@H]1N2C(=O)NCC1CC1	·	·	·	·	·	0.73	0.6	0.4	·	3
CCOC(=O)c1ccc(N=C(C)c2c(O)[nH]c(=O)[nH]c2=O)cc1	15	4	-0.7	-0.8	13	0.71	1.2	0.4	i	-2
O=c1c2ccccc2nc(-c2ccco2)n1-c1ccncc1	·	·	·	·	3	0.79	4.0	0.6	·	4
Cc1ccc(O)c(C(=O)c2cc(C(=O)NCCC(C)C)c(=O)n(CCC(C)C)c2)c1	4	8	3.0	-0.7	43	0.61	1.0	0.7	i	22
Cc1ccc(C(=O)C2CN(C)CC2C(=O)c2ccc(C)cc2)cc1 (stereo unspecified)	·	·	·	·	3	0.68	1.1	-0.7	·	2
CC(C)(C)P(=O)(NCc1ccccc1)c1ccccc1 (stereo unspecified)	14	13	-2.1	0.2	-7	0.68	1.7	-0.6	i	-8
C[C@]12CCC3C(CC[C@H]4C[C@H](N)CC[C@]34C)C1CC[C@H]2O (stereo partly specified)	13	11	4.1	-0.2	-2	0.69	6.2	0.4	i	2
COC(=O)C1=CO[C@@H](C)[C@@H]2CN3CC[C@]4(C(=O)Nc5ccccc54)[C@@H]3C[C@H]12	5	-1	0.6	·	-6	·	-1.6	-0.6	i	1
CCCCn1c(O)c(C(C)=NCCc2ccccc2)c(=O)[nH]c1=O	·	·	·	·	1	0.7	5.2	0.4	·	6
CNCCc1nc(N)n[nH]1	·	·	·	·	-10	0.72	1.3	0.2	·	-2
CC(C)COc1ccc(C2(C#N)CC[N+](C)(C)CC2)cc1	·	·	·	·	4	0.7	4.5	-0.5	·	3
O=C(O)c1cccc2nc3ccccc3nc12	8	0	-7.4	-3.1	18	0.61	7.7	0.5	i	3
O=C1CN=C(c2cccc(Br)c2)c2cc(Br)ccc2N1	-33	-61	-6.5	4.4	12	0.69	2.6	0.6	i	4
O=[N+]([O-])c1ccc(N2CCNCC2)cc1Sc1ccccn1	-1	6	-1.2	4.1	0	0.7	4.0	-0.2	i	-4
Nc1ccc(Sc2ccc(N)cc2)cc1	9	12	-4.4	-26	·	0.68	0.2	·	i	·
Cc1ccccc1-n1c(O)c(C=Nc2ccc(N(C)C)cc2)c(=O)[nH]c1=O	·	·	·	·	38	0.69	12	1.1	·	-11
Cc1nn(Cc2ccc(Cl)cc2Cl)c(Cl)c1C(=O)Nc1ccc(OC(F)F)cc1	·	·	·	·	37	0.66	2.6	0.5	·	·
COc1cc2c(cc1OC)[C@@]13CCN4CC5=CCO[C@H]6CC(=O)N2[C@H]1[C@H]6[C@H]5C[C@H]43	5	7	0.7	-5.8	-6	0.73	7.1	1.0	i	-6
O=c1[nH]c(=S)n(CCC2=CCCCC2)c(O)c1C=NCCCn1ccnc1	·	·	·	·	0	0.66	7.2	0.0	·	-4
CN(C)C(=O)Oc1ccc(-c2cn3cc(C(F)(F)F)ccc3n2)cc1	5	1	1.0	-6.5	18	0.71	-39	-1.3	i	4
COc1ccc(-c2nn(CCC#N)cc2C(=O)Nc2ccccc2Br)cc1	12	12	2.7	5.3	5	0.72	1.0	-0.3	i	-3
Cc1cc(C(=O)N=Nc2c(O)n(C)c3ccccc23)c(C)o1	·	·	·	·	30	0.67	8.9	-3.9	·	3
CCCCCSc1cc(OC)c(CCNC)cc1OC	·	·	·	·	45	0.72	3.4	0.2	·	45
CN1C(=O)c2ccccc2Sc2ccc(C(=O)N3CCC4(CC3)OCCO4)cc21	·	·	·	·	8	0.65	4.4	0.4	·	2
Cc1ccc(OP(N)(=O)Oc2ccc(C)cc2)cc1	-7	-2	-1.6	-0.7	-11	0.68	0.5	-0.3	i	-6
OC(c1ccccc1)(c1ccccc1)C1CCNCC1	·	·	·	7.7	-5	·	3.3	0.1	i	0
Cn1c(NN=O)nc2ccccc21	-23*	-13*	-1.3*	12	55*	0.66	6.0	-2.0	i	100*
CCCCCc1nc2c(c(=O)c3ccccc3n2C)c(=O)n1C1CCCCCC1	·	·	·	-3.7	51	0.68	5.1	0.2	i	111*
COC(=O)C1=CO[C@@H](C)[C@@H]2CN3CC[C@@]4(C(=O)Nc5ccccc54)[C@@H]3C[C@H]12	-8	-8	26	-2.3	-6	·	2.2	-0.3	i	-25
CCS(=O)(=O)N1CCC(C(=O)N2CCC3(CC2)OCCO3)CC1	18	2	0.3	5.5	-6	0.7	1.1	-0.1	i	-4
O=C(c1cc2c(s1)-c1ccccc1OC2)N1CCC2(CC1)OCCO2	·	·	·	·	-14	0.68	i	-7.7	·	·
Next section.
SMILES	rRNA inh HTS	rRNA inh HTS OD600	rRNA inh HTS RFP	MLL AF4-AF9 inh	T cruzi inh	E coli growth	UCH37 DUB inh	A1 inh	FGF22 binding	Beta cell apopt
Cc1cc(OCC(=O)N2CCC(C(N)=O)CC2)c2c3c(c(=O)oc2c1)CCCC3	·	·	·	-1.6	-4	0.71	-100	-0.4	i	-1
O=C1NC(=O)N(c2cccc(F)c2)C(=O)/C1=C/c1ccc(N2CCOCC2)cc1	9	4	18	-1.3	-6	0.61	4.8	0.9	i	-2
Cc1ccccc1OCCCn1cc(C(=O)C(=O)N2CCOCC2)c2ccccc21	5	2	12	-1.2	10	0.72	0.8	-0.2	i	0
COc1cc2c(cc1OC)CC[N+](C)=C2	8	11	0.9	-4.2	11	0.7	-313	0.3	i	0
Cc1cc(C)cc(N2C(=O)NC(=O)/C(=C\c3cc(C)n(C)c3C)C2=O)c1	8	7	3.2	-3.0	-5	·	1.0	1.0	i	-3
COCCNC(=O)N1[C@H]2CC[C@@H]1C(C(=O)OC)=C(c1cccc(C#N)c1)C2	25	10	-5.0	1.1	·	·	4.2	-0.3	i	-5
CC1=C2[C@@H]3OC(=O)[C@H](C)C3CC[C@@]2(C)C=CC1=O (stereo partly specified)	11	11	-2.0	-3.1	-7	0.63	2.8	-0.1	i	-6
COc1ccc([C@@H](O)[C@@H](N)c2ccccc2)cc1	4	6	-2.3	-3.1	14	0.64	2.9	0.5	i	-11
COc1ccc(CC[n+]2cc(/N=C(\C)[O-])on2)cc1OC	8	0	-1.8	-45	-10	0.66	4.5	-0.2	i	1
O=C(CNS(=O)(=O)c1cccs1)N1CCC2(CC1)OCCO2	·	·	·	·	5	0.78	5.0	-0.2	·	-8
CC1CCC(N(C)C2CCN(C)CC2)CC1 (stereo unspecified)	15	10	-2.8	2.9	-6	0.72	2.0	-0.4	i	-9
CC/C(=C\C=C\[C@@H]1C=C[C@@H]2CCC[C@H]2[C@@H]1C(=O)c1ccc[nH]1)[C@@H]1O[C@@H]([C@@H](C)C(=O)O)CC[C@@H]1C	·	·	·	8.2	65*	0.7	0.4	1.9	·	35
C=CCN1C(=O)NC(=O)/C(=C/c2cnc(SC)nc2)C1=O	·	·	·	·	-12	0.8	-0.5	0.3	·	-3
CN(C)C(=O)Oc1cccc2c(OC(=O)N(C)C)cccc12	·	·	·	·	-6	0.72	4.7	-0.8	·	-10
O=C(NCc1ccccn1)c1ccccc1Cl	·	·	·	·	-4	0.67	1.9	1.2	·	-9
O=C(/C=C/c1ccc(Cl)cc1)NC(=S)N1C[C@H]2C[C@H](C1)c1cccc(=O)n1C2	·	·	·	-3.4	-10	0.73	2.9	-0.7	i	2
CC/C=C/CC(=O)N[C@@H](c1ccccc1)[C@@H](O)C(=O)O[C@H]1C[C@@]2(O)[C@@H](OC(=O)c3ccccc3)C3[C@](C)(C(=O)[C@H](OC(C)=O)C(=C1C)C2(C)C)[C@@H](O)C[C@H]1OC[C@@]31OC(C)=O (stereo partly specified)	12	9	9.8	2.8	45	0.74	2.1	1.4	i	·
